N370S GC mod: N370S glucocerebrosidase modulation, Gaucher chaperone candidate; P04062; N370S GC spleen homogenate, 4MU-glucoside fluorescence; Potency, µM (titrated, usually from 59.4 µM), for inactives: top-dose activity change, negative = inhibition, actives largely listed as inhibitors; hit rate 0.092% among 330,000; AID 2101; active = well fitted inhibition curve with a large enough effect;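 note: 0% = full enzyme activity and -100% = no enzyme basal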
* = called active by the depositor; & = joins results of further samples; [ ] = dose if it differs, or a comment. Potency is the fitted concentration of half-maximal effect. This is a subset, and most or all hits are left out here.

SMILES	N370S GC mod
Cc1cccc(NC(=O)C23CCC(C)(/C(=N/O)C2)C3(C)C)c1 (stereo not given)	3%
CCOc1ccc(-n2c(N)c(C(=O)NCC3CCCO3)sc2=S)cc1 (stereo not given)	-6%
NNC(=O)CCc1nc2ccc(O)cc2[nH]1	-29%
CC(=O)NC1C(OCc2ccccc2)OC(COC(C)=O)C(OC(C)=O)C1OC(C)=O (stereo not given)	-7%
Cc1ccc(C)c(-n2c(CNC(=O)c3ccco3)nnc2SCC(=O)Nc2nnc(C)s2)c1	4%
CC(C)Oc1ccc(C(=O)O)c(C(=O)O)c1	12%
CCOC(=O)C1CCCN(CCC(=O)Nc2ccccc2C)C1 (stereo not given)	8%
Cc1ccc(NC(=O)c2cnccn2)c(OC(F)F)c1	2%
CCC(C)N(C(=O)COC(=O)c1nc2nc(C)cc(C)n2n1)C1CCS(=O)(=O)C1 (stereo not given)	-2%
O=C1C2C3C=CC(C3)C2C(=O)N1c1ccc(N2CCN(c3ccccn3)CC2)c([N+](=O)[O-])c1 (stereo not given)	0%
N=c1c2c3c(sc2ncn1CCCO)CCCC3	-13%
COc1ccc(/C=C/c2ccccc2)cc1C1C2C=CCC(C)C2C(=O)N1Cc1ccccc1 (stereo not given)	-6%
Cc1csc(SCC(=O)N2CCN(S(=O)(=O)c3ccc(Cl)cc3)CC2)n1	-4%
CCN(C(=O)COC(=O)CNC(=O)c1ccc2ccccc2c1)C1CCS(=O)(=O)C1 (stereo not given)	-5%
CC1CCc2c(C(=O)Oc3cccc(-n4cnnn4)c3)csc2C1 (stereo not given)	3%
O=C(O)C1CC(c2ccccc2)=NO1 (stereo not given)	3%
CN1CC(=O)N(CC(=O)Nc2ccc(F)cc2)c2ccccc2C1=O	5%
CCOc1ncccc1C(=O)Nc1nnc(C(CC)CC)s1	-1%
COc1ccc(Cl)cc1NC(=S)N(Cc1ccccc1C)CC1CCC(C(=O)O)CC1 (stereo not given)	13%
O=S(=O)(NC1CCCCC1)c1ccc(Cl)nc1	0%
CN(C)CCN(C(=O)CCS(=O)(=O)c1ccccc1)c1nc2cc3c(cc2s1)OCO3	-3%
CC(=O)C1C(c2ccc(F)c(F)c2)NC(=O)NC1(O)C(F)(F)F (stereo not given)	1%
CC(=O)c1csc(CS(=O)(=O)c2ccccn2)n1	9%
CCOC(=O)Cn1nnnc1C(CC)N(Cc1cccs1)Cc1cc2ccc(OC)cc2[nH]c1=O (stereo not given)	-1%
COc1ccc(S(=O)(=O)N2CCOC23CCN(S(=O)(=O)c2ccc(F)cc2)CC3)cc1	4%
COc1ccccc1Nc1nc(C)cc(C)c1C(N)=O	-12%
CN(CC(O)COc1ccc(S(=O)(=O)N2CCOCC2)cc1)C1CCCCC1 (stereo not given)	0%
O=C(C1CCN(Cc2cccs2)CC1)N1CCN(Cc2ccc3c(c2)OCO3)CC1	3%
CC(C)C(=O)c1c(C(C)C)nn2ccccc12	5%&4%
COc1ccc(CC(=O)Nc2nnc(SCC(=O)NCc3ccco3)s2)cc1OC	-5%
N#CCCSCc1ccc2oc(C(=O)O)cc2c1	25%
Cc1ccc(C(=O)c2ccc(CC(=O)O)n2C)cc1	6%
CCOc1cc(C(=O)Nc2ncn[nH]2)cc(OCC)c1OCC	0%
Cc1cc(C)cc(-n2c(C)cc(C(=O)CSc3nnnn3C)c2C)c1	3%
Cc1ccc(C(=O)N/C(=C\c2ccc(-c3cccc([N+](=O)[O-])c3)o2)C(=O)NCCCN(C)C)cc1	-10%
Cc1cc(C(=O)OCC(=O)Nc2cc(C(F)(F)F)ccc2N2CCOCC2)c(C)o1	24%
Cc1cccn2c(=O)c3cc(C(=O)NC4CCS(=O)(=O)C4)sc3nc12 (stereo not given)	28%
CCCCOC(=O)C1[C@H]2C(=O)N(Cc3cccs3)C[C@]23C=C[C@H]1O3 (stereo not given in full)	4%
CCOC(=O)Cc1csc(NC(=O)CSc2nnc(-c3cccnc3)n2Cc2ccco2)n1	10%
Nc1nc2c(s1)COc1ccccc1-2	-4%

Given with values ahead of the structure: entries from further up
| N370S GC mod | compound |
| --- | --- |
| 3% | Cc1cccc(NC(=O)C23CCC(C)(/C(=N/O)C2)C3(C)C)c1 (stereo not given) |
| -6% | CCOc1ccc(-n2c(N)c(C(=O)NCC3CCCO3)sc2=S)cc1 (stereo not given) |
| -29% | NNC(=O)CCc1nc2ccc(O)cc2[nH]1 |
| -7% | CC(=O)NC1C(OCc2ccccc2)OC(COC(C)=O)C(OC(C)=O)C1OC(C)=O (stereo not given) |
| 4% | Cc1ccc(C)c(-n2c(CNC(=O)c3ccco3)nnc2SCC(=O)Nc2nnc(C)s2)c1 |
| 12% | CC(C)Oc1ccc(C(=O)O)c(C(=O)O)c1 |
| 8% | CCOC(=O)C1CCCN(CCC(=O)Nc2ccccc2C)C1 (stereo not given) |
| 2% | Cc1ccc(NC(=O)c2cnccn2)c(OC(F)F)c1 |
| -2% | CCC(C)N(C(=O)COC(=O)c1nc2nc(C)cc(C)n2n1)C1CCS(=O)(=O)C1 (stereo not given) |
| 0% | O=C1C2C3C=CC(C3)C2C(=O)N1c1ccc(N2CCN(c3ccccn3)CC2)c([N+](=O)[O-])c1 (stereo not given) |
| -13% | N=c1c2c3c(sc2ncn1CCCO)CCCC3 |
| -6% | COc1ccc(/C=C/c2ccccc2)cc1C1C2C=CCC(C)C2C(=O)N1Cc1ccccc1 (stereo not given) |
| -4% | Cc1csc(SCC(=O)N2CCN(S(=O)(=O)c3ccc(Cl)cc3)CC2)n1 |
| -5% | CCN(C(=O)COC(=O)CNC(=O)c1ccc2ccccc2c1)C1CCS(=O)(=O)C1 (stereo not given) |
| 3% | CC1CCc2c(C(=O)Oc3cccc(-n4cnnn4)c3)csc2C1 (stereo not given) |
| 3% | O=C(O)C1CC(c2ccccc2)=NO1 (stereo not given) |
| 5% | CN1CC(=O)N(CC(=O)Nc2ccc(F)cc2)c2ccccc2C1=O |

Additional records.
SMILES	N370S GC mod
COc1ccccc1N1N=C(C(=O)c2ccccc2)C2C(=O)N(c3ccc(Br)cc3)C(=O)C21 (stereo not given)	25%
C/C(=N\NC(=O)COc1ccc(C)cc1Br)c1cc([N+](=O)[O-])cs1	0%
C/C(=N\NC(=O)c1ccc(CN2CCOCC2)cc1)c1cccc([N+](=O)[O-])c1	0%
Cc1ccc(C(=O)/C=C\Nc2ccc(C)c(C)c2)cc1	7%
CC1CCC2(CC1)NC(=O)N(CC(=O)NC(=O)NC1CCCC1)C2=O (stereo not given)	-11%
COCCN(C(=S)Nc1c(C)cccc1C)C(C)c1cccs1 (stereo not given)	-7%
Cc1ccc(NC(=O)N(CCCN2CCOCC2)Cc2cccnc2)cc1C	-1%
COc1ccc2nc(NC(=O)CSc3nc(SC)ns3)sc2c1	8%
O=C(c1cccnc1)N1CCc2ccccc2C1	-2%
COc1cccc(/C=C/C(=O)OCC(=O)Nc2cccc(S(=O)(=O)N3CCOCC3)c2)c1OC	-7%
O=c1cc(-c2ccccc2)nc(SCc2ccc(Cl)cc2)[nH]1	-4%
CSc1ccc(/C=C(/NC(=O)c2ccc(C)cc2)C(=O)Nc2cccc(F)c2)cc1	1%
CCOc1ccc(CC2CC(=O)NC2=O)cc1 (stereo not given)	-2%
CC(C)(C)NC(=O)CN(C(=O)CNS(=O)(=O)c1ccc(Cl)cc1)c1ccc2c(c1)OCCO2	9%
Cc1nn(-c2ccccc2)c(C)c1/C=N/N1CCN(c2ccccn2)CC1	-4%
O=C(CCCn1c(=O)[nH]c2cc(Cl)ccc2c1=O)NC1CCCCCC1	-2%
CCCC(C)NC(=O)COc1ccc(S(=O)(=O)N2CCCC2)cc1 (stereo not given)	2%
O=C(CNC(=O)c1ccc(Br)o1)NCC1CCCO1 (stereo not given)	-10%
CSCC(=O)N1CCCC(N2CCN(c3ccc(F)cc3)CC2)C1 (stereo not given)	-19%
O=C(Nc1ccc(NC(=O)c2ccccc2Cl)cc1)c1cccnc1	-27%
O=C(NCC1CCCO1)c1ccc(Cl)c(S(=O)(=O)Nc2ccccc2)c1 (stereo not given)	3%
CCOC(=O)c1ccc(NC(=O)Cn2cnc(S(=O)(=O)N3CCCC3)c2)cc1	-3%
C/C(=N\NC(=O)C(C)Oc1ccc([N+](=O)[O-])cc1)c1ccccn1 (stereo not given)	2%
CC1CC(=O)c2cnc(Nc3cccc(C(F)(F)F)c3)nc2C1 (stereo not given)	4%
Cc1ccc(NC(=O)CN2CCN(Cc3ccccc3)CC2)cc1F	-7%
Cc1nc(-c2cccc(Br)c2)ccc1C(=O)O	7%
O=c1ccnc(SCCC(F)=C(F)F)[nH]1	0%
COC(=O)c1ccc(OC)c(CSc2nnc(COc3cccc(C)c3)o2)c1	2%
COc1ccc(C(=O)N2CCCC2)cc1S(=O)(=O)N1CCOCC1	8%
N#Cc1ccccc1Cn1cc(/C=C/[N+](=O)[O-])c2ccccc21	15%
O=C(NCCCn1ccnc1)c1noc2c1CCc1ccccc1-2	21%
O=C(Nc1nccs1)c1ccc(Br)c(S(=O)(=O)N2CCCC2)c1	0%
Cc1ccc(NC(=O)CSc2nnc(-c3cccnc3)n2CCN2CCCCC2)cc1	0%
CCn1c(P(C)(=O)O)nc2cc(NC(=O)c3ccccc3Cl)ccc21	7%
CCN(CCNC(=O)C1=C(C)C(=O)OC12CCC(C)CC2)c1ccccc1 (stereo not given)	2%
CCOc1cc(C2Nc3ccccc3C(=O)N2c2ccccc2)c(Br)cc1OCC(=O)O (stereo not given)	2%
O=C(NS(=O)(=O)Oc1ccc(F)cc1F)OC[C@@H]1CCCN2CCCCC12 (stereo not given in full)	-5%
CCN(CC)C(=O)CN(c1ccc(C)cc1)S(=O)(=O)c1ccc(SC)cc1	2%
Cc1ccccc1Nc1cc2ccccc2c(=O)[nH]1	4%
CCNC(=O)NC(=O)COC(=O)c1cccc(NS(=O)(=O)/C=C/c2ccccc2)c1	-14%
Cc1ccc(CN(Cc2ccco2)C(=S)Nc2ccccc2C)cc1	4%
COC(=O)c1ccc(C#Cc2ccccc2)o1	-2%
O=C(Cn1c(C(=O)NCC2CCCO2)cc2sccc21)c1ccccc1 (stereo not given)	8%
O=C(CSc1ccc(-c2ccccc2)nn1)NC1CCCCC1	-20%
COc1ccc(S(=O)(=O)N2CCOCC2)cc1OC	12%
CN(C)S(=O)(=O)c1ccc(Nc2ccc(-c3ccc4c(c3)OCCO4)nn2)cc1	-3%
COc1cc2c(cc1OC)CN(C(=O)/C=C/c1ccccc1[N+](=O)[O-])CC2	-4%
CSc1nc(N)nc(SCC(=O)Nc2cccc(F)c2)c1C#N	14%

As entered above.
Value of COc1ccc(S(=O)(=O)N2CCOCC2)cc1OC under N370S GC mod: 12%
Value of COC(=O)c1ccc(C#Cc2ccccc2)o1 under N370S GC mod: -2%

Remaining list, next part
SMILES	N370S GC mod
CC1CN(C2CCCCC2)c2nc3c(c(=O)[nH]c(=O)n3C)n2C1 (stereo not given)	19%
CCc1nnc(NC(=O)c2cccc(S(=O)(=O)N3CC(c4ccccc4)CC3=O)c2)s1 (stereo not given)	-6%
CCC(C)NC(=O)N[C@@H](CCSC)C(=O)O (stereo not given in full)	-2%
O=C(Nc1ccccn1)c1ccc([N+](=O)[O-])cc1Cl	-18%
Cc1ccc(CCNS(=O)(=O)c2cc(Br)cnc2N)cc1	-6%
COc1ccc(-n2c(C)cc3cc(OC(C)=O)ccc32)cc1	-10%
CC(C)Oc1ccc(CSc2ncn[nH]2)cc1	1%
O=C(Nc1cccc(-c2cn3c(n2)SCC3)c1)c1ccc2ccccc2n1	8%
O=C(CSc1ncn[nH]1)Nc1cccc(S(=O)(=O)N2CCCCCC2)c1	0%
Cc1ccnc(NC(=O)CCC(=O)N(CC(=O)NC(C)(C)C)C2CCCC2)c1	1%
CSC1CCCCC1(O)CSc1nc2ccccc2o1 (stereo not given)	6%
O=S(=O)(c1ccc(NCCc2c[nH]c3ccccc23)nc1)N1CCOCC1	-2%
Cn1c(=O)c2c(SCC(=O)NCC3CCCO3)nc(-c3ccccc3Cl)nc2n(C)c1=O (stereo not given)	-11%
Cc1cc(S(=O)(=O)N2CCCCC2CCNC(=O)C(=O)NCc2cccnc2)ccc1F (stereo not given)	1%
O=C1C(=O)N(Cc2ccco2)C(c2cccc(Cl)c2)/C1=C(\O)c1ccc2c(c1)OCCO2 (stereo not given)	-1%
O=C(NC(=S)N1CCCC1)c1ccc(Cl)cc1Cl	-23%
CSc1ncc(Cl)c(C(=O)NCc2ccc3c(c2)OCO3)n1	7%
Cc1cccc(-n2c(O)c(C=Nc3ccccc3)c3ccccc3c2=O)n1	4%
COC(=O)CCCC1=CC2=CC(=O)C(C)(OC(=O)c3cccs3)C(=O)C2=CN1CC1CC1 (stereo not given)	4%[12.8 µM]
C=CCNC(=O)CN1CCC(c2nc3ccccc3[nH]2)CC1	-3%
COc1ccc(NC(=O)c2cccs2)cc1O	8%
NC(=O)c1cccc(C(N)=O)n1	7%
COc1cc([N+](=O)[O-])c(C(=O)N2CCOCC2)c([N+](=O)[O-])c1	-9%
CCC(C)(C)n1nnnc1C(c1ccncc1)N1CCN(c2cccc(OC)c2)CC1 (stereo not given)	-2%
COC(=O)c1ccc(NS(=O)(=O)c2c(C)[nH]c(C)c2C(=O)N2CCCC2)cc1	-2%
CCN(CC)C(=O)c1sc2nc(N3CCOCC3)c3c(c2c1N)CCCC3	24%
C=CCn1c(C)cc(C(=O)COc2ccc(S(=O)(=O)N3CCCC3)cc2[N+](=O)[O-])c1C	3%
O=C(CN1CCN(S(=O)(=O)c2ccc(Cl)cc2)CC1)Nc1ccc(F)cc1F	5%
CCCC(=O)Nc1nnc(S(=O)(=O)N(C)Cc2ccco2)s1	0%
CCOC(=O)c1ccc(NC(=S)N2CCN(c3ccc(N4CCOCC4)nn3)CC2)cc1	5%
Oc1cccc(C(=S)N2CCC(Cc3ccccc3)CC2)c1	7%
O=C(O)c1ccc(-n2cncn2)c([N+](=O)[O-])c1	0%

Screening results from PubChem.
